# YjeE inh = qHTS Assay for Inhibitors of YjeE; tRNA threonylcarbamoyladenosine biosynthesis protein TsaE (Escherichia coli (strain …; purified YjeE, fluorescence polarisation of a bound ADP probe; Potency, µM; actives 0.05% (n = 71,000); active = well fitted falling curve; inconclusive = weaker or top-dose-only fall, or a rising curve; inactive = flat or poorly fitted curve;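 further: top concentration of the series not given in the record; excess ADP was the control for the full effect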
#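 Fluorescence polarization of a BODIPY Texas Red–ADP probe (2 uM) bound to purified YjeE (10 uM) was read after 15 min room-temperature incubation with compounds. Loss of polarization marks inhibitors; ADP serves as titrated control.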
# Bst PK mod = Pyruvate Kinase; partly purified Bacillus stearothermophilus pyruvate kinase, luminescence ATP production; ribose 5-phosphate activator present at AC10; Potency, µM; actives 1.2% (n = 51,000); in the data active means potency below about 11 µM; inconclusive means mostly about 12 µM to 25 µM; inactive means weaker than that;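 the screen sought inhibitors and activators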;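 further: potency means the concentration at half of the fitted maximal effect; scaled between full activation by ribose 5 phosphate and full inhibition by luteolin; about four in five hits inhibit and the cells do not say which; series up to 57 µM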
# The depositor's hits bear a star; i = inactive; u = inconclusive; x = not tested or not shown. These rows are one share of the data (hit frequency here may not be typical).
Bst PK mod	YjeE inh	Molecule
>57	i	CCOc1ccc2[nH]c(=O)c(C(c3nnnn3Cc3ccco3)N3CCCC(C)C3)cc2c1 (stereo not drawn)
>57	i	C=CCNC(=O)NC(=O)COC(=O)CCCSc1nc2ccccc2[nH]1
x	i	CCNc1ncc2nc(-c3ccc(OC)cc3)c(=O)n(-c3ccc(OC)cc3)c2n1
>57	i	Cc1ccccc1C(=O)N1CCN(c2ccc(NC(=O)c3ccco3)cc2Cl)CC1
>57	i	O=C(NC1CCCC1)C(c1ccccc1F)N(C(=O)c1ccco1)C1CCCC1 (stereo not drawn)
>57	i	COc1nc(-c2ccc(C)cc2)ccc1-c1noc(-c2cccnc2)n1
>57	i	C=CCN1C(=O)C(CC(=O)NCC)SC1=Nc1ccc(S(N)(=O)=O)cc1 (stereo not drawn)
>57	i	Cn1cnc(S(=O)(=O)Nc2ccc(C(F)(F)F)cc2)c1
>26	x	CCNc1nc(Oc2ccccc2)nc(OC(C)C(=O)OCC)n1 (stereo not drawn)
x	i	COc1cccc2c(=O)n(CC(=O)N3CCN(c4ccccc4)CC3)ccc12
u	i	Cc1ccc(CN2C(=O)CCC2C(=O)NCc2ccc3c(c2)OCO3)cc1 (stereo not drawn)
>57	i	COc1ccc(C2c3c(oc4ccccc4c3=O)C(=O)N2Cc2ccncc2)cc1OC (stereo not drawn)
>57	i	CCN(CC)S(=O)(=O)c1cccc(-c2nnc(SCCOc3ccc(Cl)cc3)o2)c1
>57	i	O=C(O)CCC(=O)Nc1ccccc1N1CCOCC1
>57	i	COC(=O)Nc1cc(C(F)(F)F)ccc1N1CCN(c2ccccc2)CC1
x	i	C[C@@H]1C[C@@H]2[C@H]3CCC4=CC(=O)C=C[C@]4(C)[C@]3(F)[C@@H](O)C[C@]2(C)[C@@]1(O)C(=O)CO
x	i	CCN1CCc2c(sc(NC(=O)c3ccc(S(=O)(=O)N4CCOCC4)cc3)c2C(N)=O)C1
>57	i	O=C(COC(=O)c1ccc(Br)o1)Nc1ccc(S(=O)(=O)N2CCCC2)cc1
>57	i	CCOc1ccc2ccccc2c1C(=O)N1CCN(c2ccccc2)CC1
x	i	Cc1ccc(S(=O)(=O)N(Cc2ccccc2)Cc2ccco2)cc1
>57	i	O=C(NCCN1CCN(c2ccccc2)CC1)C1CCN(S(=O)(=O)c2cccc3nonc23)CC1
>57	i	Cc1cc(N2CCCC2=O)c(N)cc1N
>57	i	COCCCNC(=O)C1CCN(c2nc(C)cc(C)n2)CC1
x	i	O=c1c(-c2ccc(F)c(F)c2)nc2cncnc2n1Cc1ccccc1Cl
>57	i	CCNC(=O)C1CC(=O)N(Cc2ccc3c(c2)OCO3)C(=Nc2ccc(OCC)cc2)S1 (stereo not drawn)
>57	i	Cc1cc(NCCCN2CCOCC2)n2c(nc3ccccc32)c1C#N
x	i	CN(C)CCN1C(=O)C(=O)/C(=C(/O)c2ccc(F)cc2)C1c1ccccc1F (stereo not drawn)
>57	i	Cc1cc(C)c(C(=O)CSc2nnc(-c3ccccc3Br)o2)cc1C
>57	i	CC(c1ccco1)N(C(=O)C12CC3CC(CC(C3)C1)C2)c1ccccn1 (stereo not drawn)
>26	x	COC(=O)c1ccc(C2/C(=C(\O)c3ccc(OC)c(C)c3)C(=O)C(=O)N2c2cc(C)on2)cc1 (stereo not drawn)
>26	x	CC(=O)N(Cc1ccccc1)c1ccc(C(=O)O)cc1
>57	i	Cc1cc(C)c2c(n1)sc1c(O)cc(=O)[nH]c12
x	i	C=C(C)OC(C)=O
x	i	CC(=O)OC(C(=O)c1ccccc1)c1ccccc1 (stereo not drawn)
u	i	COc1cc(NS(=O)(=O)c2ccc(C)cc2)c2ncccc2c1
>57	i	CCOc1ccccc1-c1nc(C(N)=O)c2[nH]c(=O)n(-c3cccc(C)c3)c2n1
>57	i	Cn1c(=O)c2c(ncn2CC(=O)OCC(=O)NC2CCCc3ccccc32)n(C)c1=O (stereo not drawn)
6*	i	O=C(c1ccc2c3c(cccc13)CC2)N1CCN(c2ncccn2)CC1
x	i	COc1ccccc1CC(=O)N1CCN(c2cccc(C(F)(F)F)c2)CC1
>57	i	O=C(c1cccc(-c2nnc(-c3ccccc3)o2)c1)N1CCCCC1
>57	i	CC1=Nn2c(nnc2-c2ccccc2)SC1
x	i	CCOC(=O)CNc1c(-c2ccc(O)cc2)nc2ccc(Cl)cn12
>57	i	CC(C)NC(=O)c1ccccc1NC(=O)c1ccccc1N(C)S(C)(=O)=O
x	i	O=c1c(-c2ccc(F)cc2)nc2cnc(N3CCOCC3)nc2n1Cc1ccc(F)cc1
x	i	COc1ccc(N(CC(=O)N2CCN(C)CC2)S(=O)(=O)c2ccccc2)cc1OC
>57	i	COc1ccc(C)cc1NC(=O)CN1CCN(c2ccc(F)cc2)CC1
x	i	CC1=C(C(=O)OCc2ccccc2)C(c2ccco2)C2=C(CC(C)(C)CC2=O)N1 (stereo not drawn)
>57	i	COC(=O)Cc1[nH]nc2c1C(c1cccc(OC)c1OC)C(C#N)=C(N)O2 (stereo not drawn)
>11	i	CCN(CCNC(=O)c1cccc(N2CCCC2=O)c1)c1ccccc1
>57	i	CCCCn1c2c(c(=O)n(C)c1=O)C(CC(=O)OCC(=O)Nc1cccc(C(F)(F)F)c1)C(=O)N2 (stereo not drawn)
>57	i	COc1cccc(N(CC(=O)NC(C)(C)C)C(=O)C2CSC(=O)C2)c1 (stereo not drawn)
>57	i	c1ccc2c(N3CCCCC3)nc(N3CCCC3)nc2c1
>57	i	Cc1ccc(Cn2c(NCCc3ccccc3)nc3c2c(=O)n(C)c(=O)n3C)cc1
x	i	O=C(CC(=O)c1cc(Cl)ccc1O)c1ccccc1
>57	i	CC(Nc1cc(=O)n(C)c(=O)[nH]1)c1ccccc1 (stereo not drawn)
>57	i	Cc1ccc(C)c(NS(=O)(=O)c2c(C)ccc3nsnc23)c1
>57	i	CC(C)(C)NC(=O)CN(Cc1cccs1)C(=O)c1csnn1
>57	i	CC(C)(C)N=C1SCC(C)(/C=N/O)S1 (stereo not drawn)
x	i	COc1ccc(Br)cc1C(=O)Nc1ccc(O)cc1
x	i	Cn1cc(-c2nc3cnc(Oc4ccccc4)nc3n(Cc3cccs3)c2=O)c2ccccc21

# More records follow:
Bst PK mod	YjeE inh	Molecule
>57	i	COC(=O)c1ccc(OCc2nc(N)nc(N3CCOCC3)n2)cc1
x	i	C=CCOC(=O)CCCCCCCC
>57	i	Cc1nnc(N(Cc2ccco2)C(=O)c2cccc(C#N)c2)s1
>57	i	CC(C)NC(=O)Cn1c(SCC(=O)N2CCCc3ccccc32)nc2ccccc21
x	i	NC(=O)NC(c1ccccc1)c1ccccc1F (stereo not drawn)
>11	i	COC(=O)c1oc2nc(C)cc(C)c2c1N
>57	i	CCc1cccc2c(=O)c(C(=O)N3CCCCCC3)c[nH]c12
>57	i	CC1(c2ccccc2)NC(=O)N(CC(=O)NC(=O)NC2CCCC2)C1=O (stereo not drawn)
x	i	CCC(Cc1ccccc1)NC(=O)CN1C(=O)CSc2ncccc21 (stereo not drawn)
x	i	CN1CCN(S(=O)(=O)c2ccc(-c3ccc(S(=O)(=O)N4CCN(C)CC4)cc3)cc2)CC1
>57	i	Cn1c(=O)cc(OCC(=O)NC2CCCCC2)c2ccccc21
>57	i	COc1cc(C(=O)NCCc2ccc(S(N)(=O)=O)cc2)cc(OC)c1OC

# 7 entries from above, as comma-separated lines:
compound,Bst PK mod,YjeE inh
C=CCOC(=O)CCCCCCCC,x,i
Cc1nnc(N(Cc2ccco2)C(=O)c2cccc(C#N)c2)s1,>57,i
CC(C)NC(=O)Cn1c(SCC(=O)N2CCCc3ccccc32)nc2ccccc21,>57,i
NC(=O)NC(c1ccccc1)c1ccccc1F (stereo not drawn),x,i
COC(=O)c1oc2nc(C)cc(C)c2c1N,>11,i
CCc1cccc2c(=O)c(C(=O)N3CCCCCC3)c[nH]c12,>57,i
CC1(c2ccccc2)NC(=O)N(CC(=O)NC(=O)NC2CCCC2)C1=O (stereo not drawn),>57,i

# Four structures out of the list, ordered by formula weight, largest number first:
Bst PK mod	YjeE inh	Molecule
>57	i	COc1ccc(C2c3c(oc4ccccc4c3=O)C(=O)N2Cc2ccncc2)cc1OC (stereo not drawn)
>57	i	C=CCN1C(=O)C(CC(=O)NCC)SC1=Nc1ccc(S(N)(=O)=O)cc1 (stereo not drawn)
>57	i	CCOc1ccc2ccccc2c1C(=O)N1CCN(c2ccccc2)CC1
>57	i	Cc1ccc(C)c(NS(=O)(=O)c2c(C)ccc3nsnc23)c1

# (cont.)
Bst PK mod	YjeE inh	Molecule
>57	i	O=C1NCCCc2nonc21
>57	i	COc1cccc(CNC(=O)C2CCCN(c3nc4ccccc4o3)C2)c1 (stereo not drawn)
x	i	COC(=O)CN(c1ccc(F)cc1)S(=O)(=O)c1ccc2c(c1)OCCO2
>57	i	CCOc1ccccc1C1CC(=O)Nc2cc(OC)c(OC)c(OC)c21 (stereo not drawn)
>57	i	COc1ccccc1Oc1cc(C#N)c(C#N)cc1-n1nnc2ccccc21
x	i	Cc1cc(-c2ccccc2)c2nncn2n1
>57	i	COCCn1c(C)cc(C(=O)CSc2ncnc3sc4c(c23)CCC4)c1C
>57	i	Cc1ccc(CNC(=O)C2CC(=O)N(C3CCCCCCC3)C2)cc1 (stereo not drawn)
>57	i	Nc1nnnn1/N=C/C=C/c1ccccc1
>57	i	CSCCC(NC(=O)c1ccco1)C(=O)OCC(=O)Nc1sccc1C#N (stereo not drawn)
>57	i	Cc1cc(C)n2nc(C(=O)N3CCOCC3)nc2n1
>26	x	Cn1c(=O)n(CC(=O)Nc2ccccc2)c2ccccc21
>57	i	CCOC(=O)C1CCCN(C(=O)c2sc3nc(-c4ccc(F)cc4)cn3c2C)C1 (stereo not drawn)
>57	i	COc1ccc(NC(=O)C(Cc2ccccc2)NC(=O)c2ccco2)cc1OC (stereo not drawn)
>57	i	CC(=O)N1CCc2cc(S(=O)(=O)NCCC(=O)NCCc3ccc(C)cc3)ccc21
x	i	CCCS(=O)(=O)O
x	i	Cc1onc(-c2ccccc2)c1C(=O)Nc1nnc(N2CCCCCC2)s1
x	u	O=C1C=CC2=C3c4cc(O)c(O)cc4C[C@@]3(O)COC2=C1O
>57	i	Cn1c(=O)c2c(ncn2CC(=O)N2CCN(c3ccccc3)CC2)n(C)c1=O
>57	i	COc1ccccc1NC(=O)CCN1CCN(CCC(=O)Nc2ccccc2OC)CC1
>57	i	COCCCNC(=O)c1ccc2c(c1)ncn2-c1ccccc1OC
>57	i	CCCn1c(=N)n(CC(O)c2ccco2)c2ccccc21 (stereo not drawn)
x	i	CCn1ccnc1C(O)c1cccc(OC)c1OC (stereo not drawn)
x	i	C[C@@H]1C(=O)N(C)C(=O)c2nc[nH]c21
>57	i	C=CCN(C(=O)CNC(=O)c1ccco1)C(C(=O)NC1CCCCC1)c1ccc(F)cc1 (stereo not drawn)
>57	i	CCCCNC(=O)CCCn1c(=O)c2ccccc2n(CC(=O)NCCC2=CCCCC2)c1=O
>57	i	CC(C)Sc1nc2c(c(=O)[nH]c(=O)n2C)n1C
x	i	CCc1nc(SCC(=O)N2CCC(C)CC2)c2c(=O)n(C)c(=O)n(C)c2n1
>57	i	CN1C(=S)SC(C)(NO)C1(C)C (stereo not drawn)
>57	i	COc1ccc(S(=O)(=O)N2CCCN(CCC(=O)Nc3cccc(C(F)(F)F)c3)CC2)cc1
>57	i	N#CC(C(=O)C12CC3CC(CC(C3)C1)C2)c1nc2ccccc2[nH]1 (stereo not drawn)
>57	i	O=C(Cn1cnc2c(cnn2-c2ccc(F)cc2)c1=O)N1CCN(c2ccccc2)CC1
>57	i	CCOc1ccc(/C(O)=C2\C(=O)C(=O)N(CCN(C)C)C2c2cccc(OC)c2OC)cc1Cl (stereo not drawn)
>57	i	CC(NC(=O)CSc1n[nH]c(=O)n1C1CC1)C12CC3CC(CC(C3)C1)C2 (stereo not drawn)
>57	i	COCCNC(=O)C(c1cccs1)N(C(=O)Cn1nnc2ccccc21)c1cccc(C)c1 (stereo not drawn)
x	i	O=C1O[C@H]([C@@H](O)CO)C(O)=C1O

# Part of the list above in a different format:
Compound | Bst PK mod | YjeE inh
CC(C)(C)N=C1SCC(C)(/C=N/O)S1 (stereo not drawn) | >57 | i
C=C(C)OC(C)=O | x | i
CCC(Cc1ccccc1)NC(=O)CN1C(=O)CSc2ncccc21 (stereo not drawn) | x | i
COc1ccc(C)cc1NC(=O)CN1CCN(c2ccc(F)cc2)CC1 | >57 | i
CSCCC(NC(=O)c1ccco1)C(=O)OCC(=O)Nc1sccc1C#N (stereo not drawn) | >57 | i
CC(=O)OC(C(=O)c1ccccc1)c1ccccc1 (stereo not drawn) | x | i

# More results follow.
Bst PK mod	YjeE inh	Molecule
>57	i	CCOC(=O)C1CCN(S(=O)(=O)c2nc3nc(C)cc(C)n3n2)CC1
>57	i	COc1ccccc1-n1cnnc1SCC(=O)c1ccc[nH]1
>11	i	CCOC(=O)C1CCCn2c1nc1sc3c(c1c2=O)CCCC3 (stereo not drawn)
x	i	CCn1cc(C(=O)NCC2CCCO2)c(=O)c2cc(S(=O)(=O)N(C)C3CCCCC3)ccc21 (stereo not drawn)
x	i	COCCn1c(=O)c(C)nc2cnc(N3CCN(C)CC3)nc21
>57	i	CCOC(=O)c1ccccc1NC(=O)COC(=O)C1=COCCO1
x	i	CCCCN1C(=O)C(O)(CC(=O)c2ccco2)c2cc(Br)ccc21 (stereo not drawn)
>57	i	Cc1cc(Cl)c(S(=O)(=O)NCc2cccnc2)cc1OCC(N)=O
x	i	CCCCN(C)CCCNC(=O)CC1Oc2ccccc2NC1=O (stereo not drawn)
